E coli growth – inhibitors of Escherichia coli growth; OD600, 23 h; hits give low values; OD600 absorbance (test concentration not listed); 330,000 tested, 0.21% active;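 active = OD600 absorbance below the run mean of sample wells minus 3.6 SD, in any replicate, cut at about 0.56 in these data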;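 note: stock transfer was 300 nL into about 60 µL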
Vif A3G – inhibitors of Vif binding to APOBEC3G peptide, primary screen, biochemical, TR-FRET, GST-Vif 1-94, biotin-A3G peptide, dose response retest (AID 1117319). 260,000 tested, 0.57% active. one-dose inhibition, %; IC50 in µM for titrated hits. TR-FRET GST-Vif / biotin-A3G peptide binding; higher % means a stronger effect; test concentration not given here; strong numbers were not always called active;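 active = above the screen mean plus three standard deviations and confirmed in dose response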;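 note: Vif residues 1-94 fused to GST binding biotinylated APOBEC3G peptide 110-148; 0% = full assay without inhibitor and 100% = GST in place of GST-Vif; retest series ran down from 100 µM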
rRNA inh HTS – selective bacterial rRNA inhibition in E. coli; AID 720706; GFP signal change (wild-type ribosome), % (test concentration not listed); E. coli WT GFP vs humanized-ribosome RFP mutants, fluorescence, 24 h; hits give low values; DMSO median 0, no signal -100; 350,000 tested, 1.6% active;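 active = significant combined selectivity score with lowered wild-type GFP, culture density cut under 30%, mutant RFP and density less affected; inactive = any of these conditions unmet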; note: one replicate is shown; some compounds called inactive have numbers as strong as hits
HNF4A DNA FP – change in binding of human HNF4 alpha to DNA. P41235. HNF4a-FITC DNA binding, fluorescence polarization, 1 h. activity change, % at 10 µM. 360,000 tested, 0.3% active. AID 1224865; in the data active = activity change above about 30%, passing the limit was not always enough;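 note: controls were the assay level and a saturating level of protein; the project sought stronger binding though the title names inhibitors; some compounds called inactive have numbers as strong as hits; positive values seem to mean higher polarization but the record does not say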
Target sequence (P41235 whole entry, looked up): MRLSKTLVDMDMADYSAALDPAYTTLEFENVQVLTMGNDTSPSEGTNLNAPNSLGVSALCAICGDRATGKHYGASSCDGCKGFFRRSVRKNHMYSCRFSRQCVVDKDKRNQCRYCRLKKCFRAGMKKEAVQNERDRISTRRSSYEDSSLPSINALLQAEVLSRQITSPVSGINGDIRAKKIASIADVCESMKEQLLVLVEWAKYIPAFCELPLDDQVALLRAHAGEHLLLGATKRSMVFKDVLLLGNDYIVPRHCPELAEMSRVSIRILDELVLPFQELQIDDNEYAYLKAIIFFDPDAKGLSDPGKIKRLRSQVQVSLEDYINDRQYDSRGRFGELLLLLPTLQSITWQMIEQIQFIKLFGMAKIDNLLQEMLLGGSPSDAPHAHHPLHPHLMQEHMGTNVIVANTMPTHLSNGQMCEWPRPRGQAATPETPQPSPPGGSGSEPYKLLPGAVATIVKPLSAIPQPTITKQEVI
ALR H2O2 inh – inhibitors of human sulfhydryl oxidase ALR; P55789; purified ALR, DTT oxidation, H2O2 HRP-luminol luminescence; inhibition, % (no concentration beside the values); 290,000 tested, 3.8% active;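 active = mean and each replicate at 75% or more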;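 note: stock transfer was 7.5 nL into about 7.5 µL; 0% = neutral wells and 100% = wells with inactivated enzyme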
Target sequence (P55789 whole entry, looked up): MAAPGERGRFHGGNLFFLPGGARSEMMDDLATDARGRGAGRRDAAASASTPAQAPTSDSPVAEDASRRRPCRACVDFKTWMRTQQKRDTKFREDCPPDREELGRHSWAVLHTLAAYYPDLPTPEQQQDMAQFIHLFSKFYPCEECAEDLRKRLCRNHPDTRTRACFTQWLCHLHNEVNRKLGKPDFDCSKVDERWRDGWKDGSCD
AF4-AF9 inh – blocks AF4 peptide binding to human AF9 | AlphaScreen, biotin-AF4 peptide binding to FLAG-AF9 | inhibition, % at 10 µM | 350,000 tested, 0.47% active;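 active = every replicate reaching a set inhibition limit, whatever the replicate mean, cut at about 25% in these data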;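 note: 0% = plate neutral control median and 100% = total signal loss; the record names both 10 and 1 µM as test concentration; the first replicate is given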
FGF22 binding – FGF22 (human) thermal shift binding. 340,000 tested, 1.5% active. calls only at 9.99 µM. recombinant FGF22 thermal shift, SYPRO orange fluorescence; percent of sucrose octasulfate shift, DMSO zero. Q9HCT0;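 active = melting point raised past a set limit in the mean and every replicate; three in four hits are not shown here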
Target sequence (Q9HCT0 whole entry, looked up): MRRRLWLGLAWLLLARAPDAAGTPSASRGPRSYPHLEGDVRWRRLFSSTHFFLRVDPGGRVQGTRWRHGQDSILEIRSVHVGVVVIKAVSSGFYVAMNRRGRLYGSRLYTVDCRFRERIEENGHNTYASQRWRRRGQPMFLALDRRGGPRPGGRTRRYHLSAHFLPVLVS
rRNA inh HTS OD600 – also measured in rRNA inh HTS; calls as there; OD600 change, %; measured here: OD600 growth;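 optical density of the mix in the first replicate; 0 = DMSO median and -100 = no signal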
rRNA inh HTS RFP – recorded beside rRNA inh HTS, whose call it bears; RFP signal change, %; measured here: RFP humanized mutant strains;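 first replicate; 0 = DMSO median and -100 = no signal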
An asterisk follows results filed as active; i = inactive; nt = not tested or not shown; & = joins results of further samples.

SMILES	E coli growth	Vif A3G	rRNA inh HTS	rRNA inh HTS OD600	rRNA inh HTS RFP	HNF4A DNA FP	ALR H2O2 inh	AF4-AF9 inh	FGF22 binding
CC(C)(C)n1nnnc1C(c1ccnc2ccccc12)N1CCN(C/C=C/c2ccccc2)CC1 (centres undefined)	nt	nt	-29.6	-66.0	9.0	-0.3	nt	-94.8	i
CS(=O)(=O)N(CC(=O)NCC1CCCO1)c1cc(Cl)cc(Cl)c1 (centres undefined)	0.695	-0.1%	11.2	3.6	3.3	1.1	-10.4	0.1	i
COc1cccc(NCc2nnc(SCC(=O)NC3CCS(=O)(=O)C3)n2C2CCCCC2)c1 (centres undefined)	0.677	-2.6%	3.3	0.9	-0.3	-0.6	1.5	0.6	i
C=CCN1C(=O)C(CC(=O)Nc2ccc(OCCC)cc2)N(CCCN2CCN(Cc3ccccc3)CC2)C1=S (centres undefined)	0.658	nt	-10.7	-39.5	24.7	-0.6	-1.6	4.7	i
CCOC(=O)/C(=N\Nc1cc(C(F)(F)F)ccc1Cl)N(CC)CC	nt	-0.7%	nt	nt	nt	-3.4	-0.1	nt	nt
CC(C)(C)[C@]1(O)CCN2C[C@H]3c4ccccc4CCc4cccc(c43)[C@@H]2C1	nt	21.9%	nt	nt	nt	1.0	-21.4	6.4	i
C[C@@H]1CN([C@H](C)CO)C(=O)c2cc(C#C[C@@H](C)O)cnc2O[C@@H]1CN(C)C(=O)Cc1ccccn1	nt	nt	-0.4	2.5	-3.0	nt	nt	-2.6	i
Cc1noc(C)c1COC(=O)Cc1ccc(Cl)cc1	0.744	11.8%	nt	nt	nt	2.4	-1.7	nt	nt
CCCCN(C)C(=O)C1CCC(CNS(=O)(=O)c2ccc3c(c2)CC(C)N3C(=O)C2CC2)CC1 (centres undefined)	0.735	4.2%	-3.0	-16.0	3.2	0.3	-2.7	0.6	i
O=C(CC1CC1)N1[C@@H](CO)[C@@H]2c3ccccc3N(S(=O)(=O)c3ccccc3)C[C@@H]21	nt	nt	-8.0	-2.0	0.3	nt	nt	0.0	i
COc1cc(C(=O)Nc2c(C)cc(C)cc2C)c([N+](=O)[O-])cc1OC	0.653	-0.8%	9.4	12.5	-0.2	-2.3	-3.4	-64.9	i
O=C(NC1CCCCCC1)c1cc(-c2ccccn2)nc2ccccc12	0.725	-9.4%	11.2	-2.7	-3.2	2.4	-1.6	2.6	i
C[C@@H]1CN([C@@H](C)CO)S(=O)(=O)c2ccc(C3=CCCCC3)cc2O[C@@H]1CN(C)S(=O)(=O)c1ccc(F)cc1	nt	nt	-0.3	8.8	-3.7	nt	nt	0.0	i
C[C@@H]1CCCCO[C@H](CN(C)S(=O)(=O)c2ccccc2)[C@H](C)CN([C@@H](C)CO)C(=O)c2cc(NS(=O)(=O)c3cccs3)ccc2O1	nt	nt	-3.8	-4.8	2.3	nt	nt	-2.2	i
Cc1cc(C)c2nc(NC(=O)c3cc(C)on3)sc2c1	0.719	-6.1%	nt	nt	nt	-4.0	-0.6	nt	nt

3 records picked at random from those above, as already listed:
SMILES	E coli growth	Vif A3G	rRNA inh HTS	rRNA inh HTS OD600	rRNA inh HTS RFP	HNF4A DNA FP	ALR H2O2 inh	AF4-AF9 inh	FGF22 binding
Cc1cc(C)c2nc(NC(=O)c3cc(C)on3)sc2c1	0.719	-6.1%	nt	nt	nt	-4.0	-0.6	nt	nt
COc1cc(C(=O)Nc2c(C)cc(C)cc2C)c([N+](=O)[O-])cc1OC	0.653	-0.8%	9.4	12.5	-0.2	-2.3	-3.4	-64.9	i
COc1cccc(NCc2nnc(SCC(=O)NC3CCS(=O)(=O)C3)n2C2CCCCC2)c1 (centres undefined)	0.677	-2.6%	3.3	0.9	-0.3	-0.6	1.5	0.6	i

The listing continues:
SMILES	E coli growth	Vif A3G	rRNA inh HTS	rRNA inh HTS OD600	rRNA inh HTS RFP	HNF4A DNA FP	ALR H2O2 inh	AF4-AF9 inh	FGF22 binding
Cc1nc2c(C)cccc2cc1C(=O)N/N=C/c1ccc(C(=O)O)cc1	nt	-8.1%	11.2	-0.7	-1.1	1.5	-2.3	-0.9	i
O=C(Cn1cnc2ccc(Cl)cc2c1=O)c1cccs1	0.704	-23.0%	nt	nt	nt	1.6	-0.5	nt	nt
CN1CCN(C(=O)C[C@@H]2CC[C@@H]3[C@H](COC[C@@H](O)CN3C(=O)C3CCOCC3)O2)CC1	nt	nt	10.1	8.4	23.9	nt	nt	-10.1	i
CCOC(=O)C(=Cc1cn(C)c2ccc(S(=O)(=O)N(C)C)cc12)C(=O)OCC	0.622	-2.1%	13.4	15.4	2.7	-0.3	-6.8	0.6	i
N#C[C@@H]1[C@H](c2ccc(C3=CCCC3)cc2)[C@@H](CO)N1C(=O)C1CCCC1	nt	nt	0.2	-3.0	1.5	nt	nt	-4.6	i
CN(C)c1ccc2c(c1)[C@H]1C[C@H](CC(=O)NCCN3CCCCC3)O[C@@H](CO)[C@H]1O2	nt	nt	2.8	15.6	2.0	nt	nt	17.9	i
CC(N=C1NS(=O)(=O)c2ccccc21)C(=O)N1CCc2ccccc2C1 (centres undefined)	0.706	5.2%	-7.9	-5.2	3.5	1.4	-8.9	0.4	i
COc1ccccc1CCNS(=O)(=O)c1cn(C)c(=O)n(C)c1=O	0.667	-13.6%	0.7	5.5	-2.0	-0.9	5.4	-7.1	i
CCOC(=O)C1(CC2CC2)CCN(Cc2cnc(N(C)C)s2)CC1	0.647	6.1%	7.9	9.6	-1.6	0.3	nt	3.9	i
CSc1nc(C(C)C)ccc1CNC(=O)CC(C)c1ccccc1 (centres undefined)	nt	-0.9%	9.6	9.7	1.0	22.6	-12.7	0.4	i
O=C(CSc1ccc(-c2ccc(Cl)cc2)nn1)N1CCCc2ccccc21	0.699	nt	-20.2	-25.8	-10.1	0.3	nt	3.1	i
O=C(NCc1ccccc1)c1ccc(S(=O)(=O)C(F)F)cc1	0.721	1.2%	nt	nt	nt	2.7	-13.0	nt	nt
Cc1cc(C)cc(NC(=O)NN2C(C)CCCC2C)c1 (centres undefined)	0.633	28.5%	-3.2	6.8	-0.2	-1.0	-25.3	-0.1	i
COCCNC(=S)Nc1ccc2nsnc2c1	nt	-12.7%	nt	nt	nt	-1.2	-57.2	nt	nt
CC(C)NC(=O)N1[C@H](C#N)[C@H](c2ccc(C#CC3CCCCC3)cc2)[C@@H]1CO	nt	nt	1.0	0.7	0.3	nt	nt	-6.1	i
COc1ccc(Cn2nnnc2C(c2cccnc2)N2CCN(c3ccc(O)cc3)CC2)cc1 (centres undefined)	0.701	27.5%	nt	nt	nt	0.3	98.4*	nt	nt
O=C1OC(CO)CN1Cc1ccccc1 (centres undefined)	0.675	-7.5%	2.8	5.5	6.2	0.5	-7.2	-0.3	i
COc1ccc(N=c2oc3c(OC)cccc3cc2C(=O)NCc2ccco2)cc1OC	0.739	11.7%	nt	nt	nt	0.7	-12.5	nt	nt
C=C[C@@]1(C)CCC(/C(C)=C/C=C/C(C)(C)O)C[C@@H]1C(=C)C (some centres undefined)	nt	nt	nt	nt	nt	-3.6	4.4	-16.8	i
Cc1ccc(OCCNC(=O)C2CC(=O)N(Cc3ccccc3)C2)cc1 (centres undefined)	0.625	4.8%	-0.3	7.2	0.8	-0.8	-1.6	0.7	i
O=C(O)CCC(=O)Nc1sc2c(c1C(=O)Nc1ccccc1)CCCCC2	0.703	20.2%	0.9	-1.3	4.4	4.2	3.7	-0.6	i
COc1ccc(NC(=O)N(C)C[C@H]2OCCCC[C@@H](C)Oc3ccc(NS(=O)(=O)c4ccccc4)cc3C(=O)N([C@@H](C)CO)C[C@H]2C)cc1	nt	nt	2.6	-3.5	-3.3	nt	nt	-2.4	i
CC12C(=O)N(c3nccs3)C(=O)C1C1C=CC2C1 (centres undefined)	0.641	16.9%	nt	nt	nt	-0.9	-2.2	nt	nt
CC(C)(C)C(=O)NC(=S)Nc1ccc(C(F)(F)F)cc1	0.625	-2.9%	-10.8	-4.0	-2.5	5.1	-9.1	nt	i
CC(NC(=O)CCNC(=O)c1ccco1)c1ccc(F)cc1 (centres undefined)	0.727	nt	3.0	5.6	-1.3	2.1	5.7	-9.0	i
CO[C@@H]1CN(C)C(=O)c2ccc(NS(=O)(=O)c3cccc(Cl)c3)cc2OC[C@@H](C)NC[C@@H]1C	nt	nt	1.2	1.2	0.1	nt	nt	-1.3	i
COc1ccc(CCNC(=O)CN2C(=O)c3ccccc3S2(=O)=O)cc1OC	0.696	-0.8%	nt	nt	nt	-3.9	-10.2	nt	nt
O=C(CSc1ncccn1)N/N=C/c1ccc2c(c1)OCO2	nt	nt	1.8	-0.9	-0.2	1.0	-10.1	-7.8	i
c1ccc(COc2ccc(-c3cc4nc(NCc5ccc6c(c5)OCO6)ccn4n3)cc2)cc1	nt	nt	-2.6	7.5	1.1	1.8	nt	0.7	i
CCOc1ccc(-c2cc(C(=O)Nc3cccc(C(F)(F)F)c3)[nH]n2)c(C)c1	nt	nt	-7.5	-10.4	-1.3	-1.9	nt	0.4	i
CN(Cc1ccon1)C(=O)c1ccc2nc(Cc3cccc(Cl)c3)oc2c1	0.693	nt	-24.3	-21.7	-0.8	0.8	-1.5	-4.5	i
CC(C)NC(=O)N(C)C[C@H]1Oc2ccc(NS(=O)(=O)c3ccc(F)cc3)cc2CC(=O)N([C@H](C)CO)C[C@@H]1C	nt	nt	3.9	5.3	1.2	nt	nt	-1.8	i
Cc1onc(-c2ccccc2)c1C(=O)N/N=C/c1ccccc1OC(C)C	nt	-0.9%	3.4	11.6	-3.5	-2.1	-7.9	2.5	i
CCc1nnc(NC(=O)c2ccncc2)s1	0.696	4.1%	nt	nt	nt	-0.1	-2.0	nt	nt
Cc1[nH][nH]c(=O)c1N=Nc1ccc(Cl)cc1	0.685	4.4%	0.0	-0.7	3.0	-3.5	-1.9	1.3	i
Cc1c(C(=O)NNC(=O)c2csc(N3CCOCC3)n2)oc2ccccc12	0.68	-1.1%	-8.0	-3.0	6.2	0.8	51.3	-0.3	i
CN(C)CC(O)CN1C(=O)N(CN2C(=O)N(CC(O)CN(C)C)C(=O)C2(C)C)C(C)(C)C1=O (centres undefined)	0.656	-1.4%	10.6	9.9	0.9	3.4	-13.4	1.9	i
Oc1ccccc1C(=S)N1CCCCC1	0.742	1.4%	nt	nt	nt	-3.5	-5.9	nt	nt
CCC(=O)N1CCc2cc(S(=O)(=O)NCCCN3CCN(Cc4ccccc4)CC3)ccc21	0.686	22.2%	nt	nt	nt	2.5	1.1	nt	nt
O=C(COC(=O)C1(c2ccc(F)cc2)CCCC1)Nc1ncc(C(F)(F)F)cc1Cl	0.654	6.5%	nt	nt	nt	1.0	-19.8	nt	nt
O=C(O)Cn1cnc2sc3c(c2c1=O)CCCC3	0.67	-7.4%	3.9	10.8	0.1	-6.7	12.9	0.0	i
Fc1ccc(NC(=S)N2CCCC2)cc1Cl	0.674	-6.6%	nt	nt	nt	3.2	34.6	nt	nt
CCCCN(Cc1ccccc1)S(=O)(=O)c1c(N)n(C)c(=O)n(C)c1=O	0.69	-7.4%	nt	nt	nt	6.4	-3.0	-0.3	i
COc1cc(-c2nc(S(=O)(=O)c3ccccc3)c(N3CCOCC3)o2)cc(OC)c1OC	0.702	32.3%&1.1%	nt	nt	nt	-0.5	-7.2	nt	nt
CC(C)(C)c1nnc2sc(SCC(O)=C(C#N)c3nc4ccccc4[nH]3)nn2c1=O	0.684&0.679	7.5%	2.8	7.8	3.4	3.6	nt	-1.1	i
O=C(Cc1ccccc1)N1C[C@H]2[C@@H](c3ccccc31)[C@H](CO)N2C(=O)C1CCCCC1	nt	nt	-2.2	-12.7	0.4	nt	nt	1.1	i
CC(C)(CC(=O)c1ccccc1)CC(=O)c1ccccc1	nt	-12.2%	-37.2	-68.6	-6.5	1.8	nt	-47.3	i

Not all compounds are listed; rates above refer to the full screens.
